Compound activity: PubChem, Broad Institute
NOMO-1 viab: STK33 inhibitor candidate reducing NOMO-1 cell viability | NOMO-1 AML viability, CellTiter-Glo luminescence, 72 h | inhibition, % (test concentration not listed) | 37,000 tested, 7.5% active | AID 2330;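 active = most replicates above 80%; inconclusive = exactly half above 80%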;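 note: wells of about 30 µL received 25 nL stock; 0% = median of vehicle wells and 100% = reference inhibitor level; the first replicate is given; inactives centre near 10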
The depositor's hits bear a star; u = inconclusive.

Preview (2 entries):
Molecule	NOMO-1 viab
C[C@H]1CN([C@@H](C)CO)C(=O)c2cccc(NS(=O)(=O)c3ccc(Cl)cc3)c2O[C@H]1CN(C)C	0
C[C@H](CO)N1C[C@H](C)[C@H](CN(C)Cc2ccc(-c3ccccc3)cc2)Oc2ccc(NC(=O)CCC(F)(F)F)cc2CC1=O	63

The listing, from the first entry:
Molecule	NOMO-1 viab
C[C@H]1CN([C@@H](C)CO)C(=O)c2cccc(NS(=O)(=O)c3ccc(Cl)cc3)c2O[C@H]1CN(C)C	0
C[C@H](CO)N1C[C@H](C)[C@H](CN(C)Cc2ccc(-c3ccccc3)cc2)Oc2ccc(NC(=O)CCC(F)(F)F)cc2CC1=O	63
Cc1noc(C)c1S(=O)(=O)Nc1ccc2c(c1)C(=O)N([C@H](C)CO)C[C@H](C)[C@H](CN(C)C(=O)Nc1ccccc1)O2	-2
C[C@@H]1CCCCO[C@H](CN(C)C(=O)Nc2ccc(C(F)(F)F)cc2)[C@@H](C)CN([C@H](C)CO)C(=O)c2cc(NC(=O)Nc3ccc4c(c3)OCO4)ccc2O1	30
C[C@H]1CN([C@@H](C)CO)C(=O)Cc2cc(NC(=O)CCN3CCOCC3)ccc2O[C@H]1CN(C)C(=O)Nc1cccc2ccccc12	19
C[C@@H]1CN([C@H](C)CO)C(=O)c2cc(NC(=O)Nc3ccccc3)ccc2O[C@@H]1CN(C)Cc1ccncc1	-5
COc1ccc(OCC(=O)Nc2ccccc2C(=O)Nc2ccccc2)cc1	29
C[C@H]1CN([C@@H](C)CO)C(=O)Cc2cc(NS(=O)(=O)c3ccc(Cl)cc3)ccc2O[C@H]1CN(C)CC1CC1	9
C[C@@H]1CN([C@H](C)CO)C(=O)Cc2cc(NS(=O)(=O)c3ccc(F)cc3)ccc2O[C@@H]1CN(C)CC1CCCCC1	14
Cc1cc(C)c2c(N)c(C(=O)c3cccs3)sc2n1	8
C[C@H]1CN([C@@H](C)CO)C(=O)Cc2cc(NC(=O)Cc3ccccc3)ccc2O[C@H]1CN(C)S(=O)(=O)c1cccs1	-4
C[C@@H]1CN([C@@H](C)CO)C(=O)Cc2cc(NS(=O)(=O)c3ccc(F)cc3)ccc2O[C@@H]1CN(C)C(=O)Nc1ccc(C(F)(F)F)cc1	9
COc1ccc(NC(=O)Nc2ccc3c(c2)C(=O)N([C@H](C)CO)C[C@H](C)[C@H](CN(C)C(=O)Nc2ccc(C(F)(F)F)cc2)OCCCC[C@@H](C)O3)cc1	53
CCOc1ccc(S(=O)(=O)NCCN2CCOCC2)cc1C	20
O=C(O)CCS(=O)(=O)c1nc(-c2ccccc2)cc(C(F)(F)F)n1	23

5 entries from above, ordered by formula weight, rising:
Molecule	NOMO-1 viab
CCOc1ccc(S(=O)(=O)NCCN2CCOCC2)cc1C	20
COc1ccc(OCC(=O)Nc2ccccc2C(=O)Nc2ccccc2)cc1	29
C[C@@H]1CN([C@H](C)CO)C(=O)c2cc(NC(=O)Nc3ccccc3)ccc2O[C@@H]1CN(C)Cc1ccncc1	-5
C[C@H]1CN([C@@H](C)CO)C(=O)Cc2cc(NC(=O)CCN3CCOCC3)ccc2O[C@H]1CN(C)C(=O)Nc1cccc2ccccc12	19
C[C@@H]1CN([C@@H](C)CO)C(=O)Cc2cc(NS(=O)(=O)c3ccc(F)cc3)ccc2O[C@@H]1CN(C)C(=O)Nc1ccc(C(F)(F)F)cc1	9

Carrying on.
Molecule	NOMO-1 viab
C[C@@H]1CN([C@H](C)CO)C(=O)c2cc(NC(=O)NC3CCCCC3)ccc2O[C@H]1CN(C)Cc1ccc2c(c1)OCO2	16
C[C@H]1CN([C@@H](C)CO)C(=O)c2cc(NC(=O)Nc3ccc(F)cc3)ccc2O[C@H]1CN(C)Cc1ccncc1	100*
CC(=O)Nc1sc2c(c1SC#N)CCCC2	72
CNC[C@H]1Oc2ccc(NS(=O)(=O)c3ccccc3)cc2C(=O)N([C@@H](C)CO)C[C@@H]1C	0
Cc1cccc(OCC(=O)Nc2cccc(-c3nc4ccccc4[nH]3)c2)c1C	62
C[C@H](CO)N1C[C@H](C)[C@@H](CN(C)Cc2ccncc2)Oc2c(NS(=O)(=O)c3ccc(F)cc3)cccc2C1=O	9
COc1ccc(S(=O)(=O)Nc2cccc3c2O[C@H](CN(C)Cc2ccc(C(=O)O)cc2)[C@H](C)CN([C@@H](C)CO)C3=O)cc1	0
C[C@@H]1CN([C@H](C)CO)C(=O)Cc2cc(NC(=O)Cn3cnnn3)ccc2O[C@@H]1CN(C)Cc1ccc(C(=O)Nc2ccccc2N)cc1	41
Cc1ccc(-c2cc(C(=O)NCCCN3CCOCC3)no2)cc1	2
O=C(CSc1nnc(-c2ccncc2)n1-c1ccc(Cl)cc1)Nc1ccccc1-c1ccccc1	5
COc1ccc(CN(C)C[C@@H]2Oc3ccc(NS(=O)(=O)c4ccc(C)cc4)cc3CC(=O)N([C@@H](C)CO)C[C@@H]2C)cc1	29
C[C@@H]1CCCCO[C@@H](CN(C)CC2CCCCC2)[C@@H](C)CN([C@H](C)CO)C(=O)c2cc(NC(=O)NC3CCCCC3)ccc2O1	22
O=C(COc1ccc(CO)cc1)Nc1ccc(F)cc1	10
COc1cc(NC(=O)C(C)Oc2ccc(Cl)cc2Cl)ccc1NC(=O)c1cc2ccccc2o1 (configuration not stated)	32
CCc1ccc(N=C(N)N=C(N)N)cc1	-11
O=CN/C=C\c1ccc(O)cc1	31
C[C@H]1CN([C@@H](C)CO)C(=O)c2cccc(NC(=O)NC3CCCCC3)c2O[C@H]1CN(C)C(=O)Nc1ccc2c(c1)OCO2	38
Cc1ccc(S(=O)(=O)Nc2ccc3c(c2)C(=O)N([C@@H](C)CO)C[C@H](C)[C@H](CN(C)Cc2ccc(C(=O)Nc4ccccc4N)cc2)O3)cc1	110*
CC1(C)CC(NC(=O)CC(c2ccc(F)cc2)c2ccco2)CCO1 (configuration not stated)	-6
COc1ccc(S(=O)(=O)Nc2ccc3c(c2)C(=O)N([C@H](C)CO)C[C@@H](C)[C@H](CN(C)Cc2ccc(C(=O)O)cc2)O3)cc1	14
COc1ccc(C(=O)/C=C/Nc2ccc(C(F)(F)F)cc2)cc1	6
CCOC(=O)c1ccc(NC(=O)CSc2ncccn2)cc1	12
C[C@@H]1CN([C@@H](C)CO)C(=O)c2cccc(NC(=O)C3CC3)c2O[C@H]1CN(C)Cc1ccc(Oc2ccccc2)cc1	100*
C[C@@H]1CCCCO[C@@H](CN(C)C(=O)c2ccccc2)[C@@H](C)CN([C@H](C)CO)C(=O)c2cc(NC(=O)C3CCCCC3)ccc2O1	30
C[C@@H]1CN([C@H](C)CO)C(=O)c2cc(NS(=O)(=O)c3ccc(F)cc3)ccc2O[C@@H]1CN(C)C	9
CCc1ccc(Nc2nc3ccccc3nc2NS(=O)(=O)c2ccc(C)cc2)cc1	26
C[C@@H]1CN([C@@H](C)CO)C(=O)c2cc(NC(=O)Cc3ccccc3)ccc2O[C@H]1CN(C)S(=O)(=O)c1cccs1	-8
C[C@H](CO)N1C[C@H](C)[C@@H](CN(C)C(=O)Nc2ccccc2)Oc2c(NC(=O)Nc3ccc(F)cc3)cccc2C1=O	15
C[C@@H]1CN([C@H](C)CO)C(=O)Cc2cc(NC(=O)Cc3cn(C)c4ccccc34)ccc2O[C@H]1CN(C)C	1
Cc1sc2c(c1C)CN(Cc1ccco1)CN2C(=O)c1ccccc1	20
Cc1ccc(NC(=O)C2CC(=O)n3ncnc3N2)cc1 (configuration not stated)	-6
Cc1noc(C)c1NC(=O)N(C)C[C@H]1Oc2c(NS(=O)(=O)c3cccs3)cccc2C(=O)N([C@@H](C)CO)C[C@@H]1C	39
C[C@H](CO)N1C[C@H](C)[C@H](CN(C)C(=O)Nc2cccc3ccccc23)Oc2ccc(NC(=O)CCCN(C)C)cc2C1=O	21
COC(=O)c1ccccc1NC(=O)CN1CCOCC1	8
C[C@@H]1CN([C@H](C)CO)C(=O)Cc2cc(NC(=O)CCC(F)(F)F)ccc2O[C@@H]1CN(C)C(=O)Nc1ccc2c(c1)OCO2	2
C[C@@H]1CN([C@H](C)CO)C(=O)c2cc(NC(=O)c3ccncc3)ccc2O[C@@H]1CN(C)S(=O)(=O)c1ccc(F)cc1	2
O=C(CSc1nnnn1-c1ccc(Cl)cc1)Nc1ccc(Cl)cc1Cl	72
C[C@@H]1CN([C@H](C)CO)C(=O)Cc2cc(NC(=O)NC3CCCCC3)ccc2O[C@H]1CN(C)Cc1ccc(-c2ccccc2)cc1	u
CCCCn1c(SCC(N)=O)nc2c1c(=O)n(C)c(=O)n2C	-13
C[C@@H]1CN([C@@H](C)CO)C(=O)c2cccc(NS(=O)(=O)c3ccc(Cl)cc3)c2O[C@@H]1CN(C)C(=O)Nc1ccc2c(c1)OCO2	26
C[C@H]1CN([C@@H](C)CO)C(=O)Cc2cc(NC(=O)Nc3ccc(C(F)(F)F)cc3)ccc2O[C@H]1CN(C)Cc1ccc2c(c1)OCO2	u
CNC[C@H]1Oc2ccc(NC(=O)Nc3ccc(OC)cc3)cc2CC(=O)N([C@@H](C)CO)C[C@@H]1C	24
Cc1c(CNC(=S)Nc2cccc([N+](=O)[O-])c2)cnn1C	0
C[C@@H]1CN([C@H](C)CO)C(=O)Cc2cc(NC(=O)C3CCCCC3)ccc2O[C@H]1CN(C)CC1CCCCC1	-3
Cc1noc(C)c1NC(=O)Nc1ccc2c(c1)C(=O)N([C@@H](C)CO)C[C@H](C)[C@H](CN(C)C(=O)Nc1ccccc1)O2	-9
C[C@@H]1CN([C@H](C)CO)C(=O)Cc2cc(NC(=O)c3ccncc3)ccc2O[C@@H]1CN(C)CC1CCCCC1	0
CC(C)NC(=O)Nc1ccc2c(c1)CC(=O)N([C@H](C)CO)C[C@@H](C)[C@@H](CN(C)S(=O)(=O)c1ccc(Cl)cc1)O2	9
Cc1cc(C)cc(N(C(C)C(=O)O)S(C)(=O)=O)c1 (configuration not stated)	-12
CS(=O)(=O)N(CC(=O)Nc1cc(Cl)c(Cl)cc1Cl)C1CCCCC1	1
C[C@H]1CN([C@@H](C)CO)C(=O)c2cccc(NS(=O)(=O)c3ccc(Cl)cc3)c2O[C@@H]1CN(C)Cc1ccc(C(=O)Nc2ccccc2N)cc1	126*
COc1cc(NC(=O)COc2ccccc2Cl)ccc1NC(=O)c1cc2ccccc2o1	104*
COc1ccc(NC(=O)Nc2cccc3c2O[C@@H](CN(C)S(=O)(=O)c2cccs2)[C@H](C)CN([C@H](C)CO)C3=O)cc1	-6
Cc1cc2c(c(Sc3ccc(Cl)cc3)n1)C(=O)NC2=O	u
C[C@H](CO)N1C[C@H](C)[C@@H](CN(C)C(=O)Nc2ccc3c(c2)OCO3)Oc2ccc(NC(=O)Cn3cnnn3)cc2C1=O	16
C[C@H]1CN([C@@H](C)CO)C(=O)c2cc(NC(=O)Cc3cn(C)c4ccccc34)ccc2O[C@@H]1CN(C)C(=O)Nc1ccc(C(F)(F)F)cc1	32
Cc1ccc(C(=O)CSc2nnc(-c3cccc(F)c3)n2-c2ccccc2)c(C)c1	34
C[C@@H]1CN([C@H](C)CO)C(=O)c2cccc(NC(=O)Nc3ccccc3)c2O[C@@H]1CN(C)C(=O)NC1CCCCC1	7
CCOC(=O)c1sc2sc(C(=O)OCC)c(-c3ccc(Cl)cc3)c2c1N	68
COc1ccc(S(=O)(=O)Nc2ccc3c(c2)CC(=O)N([C@H](C)CO)C[C@H](C)[C@H](CN(C)C(=O)Nc2ccc4c(c2)OCO4)O3)cc1	8
Cc1cccc(NC(=O)CSc2nncn2C)c1	2

(more compounds)
Molecule	NOMO-1 viab
C[C@H]1CN([C@@H](C)CO)C(=O)c2cccc(NS(=O)(=O)c3ccc(F)cc3)c2O[C@@H]1CN(C)S(=O)(=O)c1cccs1	14
O=C(Nc1cccc(Cn2cccn2)c1)c1cc(-c2ccccc2)nc2ccccc12	54
Cc1ccc(S(=O)(=O)Nc2ccc3c(c2)C(=O)N([C@@H](C)CO)C[C@@H](C)[C@H](CN(C)S(=O)(=O)c2ccccc2)O3)cc1	-17
Cc1cc(C)c(C#N)c(SCC(O)CSc2ccc(Cl)cc2)n1 (configuration not stated)	10
CC(C)c1ccc(NC(=O)CSc2nnc(-c3ccccc3O)n2C)cc1	4
COc1ccc(S(=O)(=O)Nc2cccc3c2O[C@@H](CN(C)Cc2ccncc2)[C@H](C)CN([C@@H](C)CO)C3=O)cc1	-7
CC1=NN(c2ccccc2)C(=O)C1C (configuration not stated)	37
C[C@@H]1CN([C@H](C)CO)C(=O)Cc2cc(NC(=O)CCCCCC(=O)Nc3ccccc3N)ccc2O[C@@H]1CN(C)C(=O)Nc1ccc(C(F)(F)F)cc1	4
C[C@H](CO)N1C[C@H](C)[C@H](CN(C)S(=O)(=O)c2ccc(Cl)cc2)Oc2c(NC(=O)Nc3ccc(C(F)(F)F)cc3)cccc2C1=O	53
C[C@@H]1CN([C@H](C)CO)C(=O)c2cccc(NC(=O)c3ccncc3)c2O[C@H]1CN(C)CC1CC1	28
COC(=O)c1sc(SC)c(C#N)c1-c1ccco1	-7
Cc1noc(C)c1S(=O)(=O)Nc1ccc2c(c1)C(=O)N([C@@H](C)CO)C[C@H](C)[C@@H](CN(C)Cc1ccc(Oc3ccccc3)cc1)O2	26
CC(C)CNc1nc(Oc2ccc(=O)[nH]n2)nc(N(C)C)n1	-5
COc1cc(Cl)c(C)cc1NC(=O)CN(C)S(=O)(=O)c1ccc(Br)cc1	-24
Cc1ccc(S(=O)(=O)N(C)C[C@@H]2Oc3c(NC(=O)C4CCOCC4)cccc3C(=O)N([C@@H](C)CO)C[C@H]2C)cc1	-9
Cc1noc(C)c1NC(=O)N(C)C[C@@H]1Oc2ccc(NC(=O)Nc3ccccc3)cc2C(=O)N([C@@H](C)CO)C[C@H]1C	11
Cc1ccc(S(=O)(=O)N(C)C[C@@H]2Oc3ccc(NC(=O)Nc4ccc5c(c4)OCO5)cc3CC(=O)N([C@H](C)CO)C[C@@H]2C)cc1	102*
O=C(CSc1nnc(-c2ccc([N+](=O)[O-])cc2)n1-c1ccccc1)Nc1ccc(Cl)cc1	6

This is a subset. The share of hits here may be higher or lower than overall.
